# ALR inh = inhibitors of human ALR sulfhydryl oxidase, primary screen, biochemical, H2O2 detection, HRP-luminol luminescence, single point. 290,000 tested, 3.8% active. inhibition, % (concentration not given with the values). purified ALR, DTT oxidation. FAD-linked sulfhydryl oxidase ALR (Homo sapiens), P55789;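 active = mean and each replicate at 75% or more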;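 also: stock transfer was 7.5 nL into about 7.5 µL; 0% = neutral wells and 100% = wells with inactivated enzyme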
# Target sequence (P55789 whole entry, looked up): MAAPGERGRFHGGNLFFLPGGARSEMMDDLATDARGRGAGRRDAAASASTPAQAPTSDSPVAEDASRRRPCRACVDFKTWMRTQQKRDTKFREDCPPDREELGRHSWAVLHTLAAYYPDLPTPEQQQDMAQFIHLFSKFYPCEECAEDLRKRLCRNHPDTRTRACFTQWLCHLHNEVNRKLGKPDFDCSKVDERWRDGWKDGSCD
# rRNA inh HTS = reduced GFP signal of wild-type E. coli, primary screen, bacterial rRNA inhibitor project, GFP/RFP fluorescence, OD600, single point. GFP signal change (wild-type ribosome), % (test concentration not listed). AID 720706, 2013. 350,000 tested, 1.6% active. E. coli WT GFP vs humanized-ribosome RFP mutants, 24 h; stronger effect = lower value; DMSO median 0, no signal -100;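 active = significant combined selectivity score with lowered wild-type GFP, culture density cut under 30%, mutant RFP and density less affected; inactive = any of these conditions unmet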; also: one replicate is shown; some compounds called inactive have numbers as strong as hits
# Ecoli growth = E. coli growth inhibition, primary screen, OD600. Escherichia coli growth, 23 h; stronger effect = lower value. OD600 absorbance (concentration not given with the values). 330,000 tested, 0.21% active;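 active = OD600 absorbance below the run mean of sample wells minus 3.6 SD, in any replicate, cut at about 0.56 in these data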;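 also: stock transfer was 300 nL into about 60 µL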
# UCH37 inh = inhibitors of human UCH37 deubiquitinase, primary screen, biochemical, Ub-AMC cleavage, fluorescence | AID 588478, 2011 | purified proteasome/UCH37 | 330,000 tested, 0.33% active | Ubiquitin carboxyl-terminal hydrolase isozyme L5 (Homo sapiens), Q9Y5K5 | inhibition, % (no concentration beside the values);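 active = mean of two replicates above 20%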;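 also: 0% = compound-free wells with enzyme and 100% = wells lacking proteasome; stock transfer was 100 nL into about 20 µL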
#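 Material: human UCH37 enzyme supplied as purified proteasome complex / Amount: 0.15 nM proteasome as dispensed / Buffer or medium: pH 7.4 Tris-HCl (50 mM) with ovalbumin, ATP-MgCl2, DTT / Times: preincubation 30 min, reaction 25 min, room temperature / Technique: AMC fluorescence from Ub-AMC cleavage, excitation 355 nm, emission 460 nm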
# HNF4A DNA FP = change in binding of human HNF4A to DNA, primary screen, biochemical, fluorescence polarization, FITC-DNA. Hepatocyte nuclear factor 4-alpha (Homo sapiens), P41235. activity change, % at 10 µM. 1 h. 360,000 tested, 0.3% active; in the data active = activity change above about 30%, passing the limit was not always enough;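 also: controls were the assay level and a saturating level of protein; the project sought stronger binding though the title names inhibitors; some compounds called inactive have numbers as strong as hits; positive values seem to mean higher polarization but the record does not say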
# FGF22 binding = binders of human FGF22 protein, primary screen, FGF22 synaptogenesis inhibitor project, biophysical, thermal shift, single point; recombinant FGF22 thermal shift, SYPRO orange fluorescence; percent of sucrose octasulfate shift, DMSO zero; AID 651658, 2012; calls only at 9.99 µM; 340,000 tested, 1.5% active;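 active = melting point raised past a set limit in the mean and every replicate; three in four hits are not shown here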
# Target sequence (Q9HCT0 whole entry, looked up): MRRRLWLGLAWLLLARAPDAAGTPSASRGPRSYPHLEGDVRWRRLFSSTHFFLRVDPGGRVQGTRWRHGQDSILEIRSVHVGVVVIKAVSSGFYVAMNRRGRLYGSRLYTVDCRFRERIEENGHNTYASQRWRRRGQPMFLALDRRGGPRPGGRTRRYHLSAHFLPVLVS
# Beta2AR agonist = beta2AR agonists driving receptor internalization, primary screen, cell-based, FAP fluorogen, flow cytometry. response, % (no concentration beside the values). Am2.2-beta2AR cells; reference of the scale not given here. 340,000 tested, 0.43% active. Beta-2 adrenergic receptor (Homo sapiens), P07550;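 active = response above a set limit, near 3 SD of response in nonfluorescent compounds, cut at about 42% in these data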;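 also: stock transfer was 100 nL into about 11 µL; a reference agonist was the positive control; negative values mostly stem from fluorescent compounds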
# Target sequence (P07550 whole entry, looked up): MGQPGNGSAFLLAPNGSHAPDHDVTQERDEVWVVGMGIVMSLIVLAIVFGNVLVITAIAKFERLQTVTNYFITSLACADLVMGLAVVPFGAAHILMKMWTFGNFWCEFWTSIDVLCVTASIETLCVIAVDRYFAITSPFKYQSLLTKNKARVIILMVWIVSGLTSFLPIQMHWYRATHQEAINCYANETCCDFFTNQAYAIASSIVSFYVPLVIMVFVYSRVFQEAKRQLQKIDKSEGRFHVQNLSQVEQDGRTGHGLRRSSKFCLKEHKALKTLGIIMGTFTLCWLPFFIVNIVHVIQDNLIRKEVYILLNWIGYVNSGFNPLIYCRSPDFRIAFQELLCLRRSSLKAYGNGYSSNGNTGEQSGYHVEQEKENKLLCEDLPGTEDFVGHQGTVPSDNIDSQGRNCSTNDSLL
# rRNA inh HTS OD600 = also measured in rRNA inh HTS; calls as there; OD600 change, %; measured here: OD600 growth;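 optical density of the mix in the first replicate; 0 = DMSO median and -100 = no signal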
# rRNA inh HTS RFP = second read-out of rRNA inh HTS, no call of its own (marks repeat the call); RFP signal change, %; measured here: RFP humanized mutant strains;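 first replicate; 0 = DMSO median and -100 = no signal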
# Active calls of the source: *; i = inactive; nt = not tested or not shown; & = joins results of further samples. Some of the compounds tested; the hit share may differ from the screen's.
SMILES,ALR inh,rRNA inh HTS,rRNA inh HTS OD600,rRNA inh HTS RFP,Ecoli growth,UCH37 inh,HNF4A DNA FP,FGF22 binding,Beta2AR agonist
C=CCOc1ccc(C2C(C(=O)c3ccco3)=C(O)C(=O)N2c2nnc(C)s2)cc1 (configuration not stated),15,-10,12,17,0.7,6.7,-20,i,11
Cc1ccc(S(=O)(=O)N(CCc2ccccc2)c2ccc3c(c2)C2CC3CCN2C(=O)OCc2ccccc2)cc1 (configuration not stated),nt,9,18,4.7,nt,nt,0.3,i,nt
Cc1oc2c(c(C)cc3oc(=O)c(CC(=O)N[C@H](C(=O)O)C(C)C)c(C)c32)c1C,7,-11,-30,-6.3,0.69,-127,0.5,i,4
O=C(NCCCNCCCNC(=O)c1ccc(/C=N/O)nc1)c1ccc(/C=N/O)nc1,-7,-11,-21,-1.6,nt,nt,6.4,i,-3
O=C(Nc1ccc(Oc2ccccc2)nc1)C1CCN(Cc2ccccc2)CC1,3,7,1,1.8,0.65,5.5,-4.6,i,-8
COc1ccc(CC(=O)NCCC2=CCCCC2)cc1,-1,-17,-5,1.2,0.71,0.2,1.1,i,-7
CCOc1ccccc1N(C(C)=O)S(=O)(=O)c1ccc(Cl)cc1,1,-16,-13,-12,0.69,0.1,1.5,i,12
CCc1ccc(CN(C)Cc2nc(Cc3cccc(C(F)(F)F)c3)no2)nc1,-1,-28,-27,-2.8,0.65,-1.3,-3.2,nt,4
O=C(O)C1=C[C@H](c2cccs2)C[C@H](OCc2ccc(CO)cc2)O1,26,1,14,2.6,nt,3.5,2.4,i,-10
CCC1CCCCN1C(=O)CSc1nc(C)cc(C)n1 (configuration not stated),1,6,0,-5.4,0.66,0.2,-2.4,i,12
COc1ccc(CCNS(=O)(=O)c2ccc3oc(C(=O)O)c(C)c3c2)cc1OC,nt,nt,nt,nt,0.66,-0.3,0.7,nt,-14
CCOC(=O)Cn1c(C)c(Br)c(COC)c(C#N)c1=O,-16,-2,-8,-4.6,0.65,0.1,0.5,i,-9
CC(C)CN(C(=O)COC(=O)c1cccnc1Cl)c1c(N)n(Cc2ccccc2)c(=O)[nH]c1=O,-2,6,10,-2.5,nt,nt,1.4,i,-1
COC1=CC(=O)C=C(OC)C1(O)CC(C)=O,nt,nt,nt,nt,nt,nt,-2.5,i,12
Cc1nc2ccccc2n1/N=C/c1ccc([N+](=O)[O-])o1,-23,-2,-2,-0.8,nt,nt,1.8,i,13
CCCCC(=O)Nc1nnc(SCC(=O)NCC2CCCO2)s1 (configuration not stated),-2,-1,-6,-2.2,0.67,0.2,-0.1,i,1
Cc1ccc(C2(C)NC(=O)N(CC(=O)N3CCN(S(=O)(=O)c4cccc([N+](=O)[O-])c4)CC3)C2=O)cc1 (configuration not stated),-12,-6,0,-2.1,0.69,0.6,-6.0,i,4
COC(=O)c1sccc1NC(=O)CN(C)NS(=O)(=O)c1ccc(Cl)cc1,nt,nt,nt,nt,0.7,1.8,0.7,nt,-6
O=C(CN(CCc1ccccc1)S(=O)(=O)c1ccc(Br)cc1)N/N=C/c1ccccc1C(=O)O,10,5,-2,1.5,nt,nt,-1.2,nt,-14
COc1nc(-c2ccccc2)cc(-c2ccc3c(c2)OCO3)c1C#N,9,10,9,-1.9,0.7,-174,-1.3,i,-6
CSc1ccc(CN(C)CCc2ccccn2)cc1,-5,-2,-1,-2.2,0.63,3.0,-1.1,i,1
CCCOc1ccc(C2C(C(=O)c3cc4ccccc4o3)=C(O)C(=O)N2c2cc(C)on2)cc1 (configuration not stated),-5,-2,10,-1.9,nt,nt,-1.5,i,9
C[C@@H]1CN([C@@H](C)CO)C(=O)CCCn2nncc2CO[C@H]1CN(C)C(=O)Nc1ccc(-c2cccs2)cc1,nt,-3&-2,-6&-5,-4.7&0.1,nt,nt,3.5,i,nt
CCCCCc1ccc(OCCCC[n+]2ccc(C)cc2)c(CCCCC)c1,-8,-61,-76,-32,0.56,29*,1.5,i,8
CCOC(=O)c1cnc2c(C)cccc2c1NCCCN1CCOCC1,nt,-11,-6,0.4,0.68,3.1,3.6,i,4
O=c1[nH]nc(-c2ccc(F)cc2)cc1Cc1ccccc1,-2,-6,-1,1.5,0.68,5.7,0.9,i,-1
COc1ccccc1C(=O)N/C(=C/c1cccc([N+](=O)[O-])c1)C(=O)Nc1cccc(C(=O)O)c1,-2,7,-1,-2.1,0.67,3.6,-2.8,i,-2
Cc1cc(Br)c(NC(=O)COC(=O)c2ccc[n+]([O-])c2)c(Br)c1,-4,0,0,-4.3,0.69,-2.7,1.4,i,6
O=C(COC(=O)c1ccccc1O)NCCCc1ccccc1,nt,-1,3,1.2,0.63,-1.2,-2.9,i,7
COc1nc(NCCO)nc(Nc2cc(Cl)ccc2OC)n1,-6,-2,-2,-11,0.64,2.6,1.0,i,2
COC(=O)C1CCN(C(=O)CSc2nnc(-c3ccncc3)o2)CC1,-9,nt,nt,nt,0.73,0.5,-3.6,nt,2
CCCCc1ccc(NC(=O)CSc2nc(=O)n(CCN(CC)CC)c3c2CCC3)cc1,-390,-13,-40,17,0.59,7.1,1.9,i,11
CCOc1ccc(S(=O)(=O)N(CC(=O)NCc2cccnc2)c2ccc(F)cc2)cc1,3,-10,0,-0.9,0.72,-0.1,-1.1,i,7
Cc1onc(-c2ccc(Cl)cc2)c1-c1ccnn1S(=O)(=O)c1cccc(C(F)(F)F)c1,nt,-9,-7,-1.7,0.73,3.0,1.4,i,-3
COc1cccc(CN(C)C(=O)c2ccccc2Sc2ccccc2C#N)c1OC,-14,-12,-18,2.5,0.68,3.9,2.3,i,-2
CCOc1ccc(/C=C(\C#N)C(=O)Nc2cccnc2)cc1,-8,nt,nt,nt,0.72,-7.6,2.1,nt,6
Cc1cc(C(=O)N(CCC#N)Cc2cccs2)no1,-20,12,8,1.9,0.64,3.9,0.5,i,2
COc1ccc(-n2nc(C(=O)NCC(=O)N3CCN(c4ccccn4)CC3)c3ccccc3c2=O)cc1,-1,nt,nt,nt,0.69,0.7,1.3,nt,7
O=C(NCC(=O)N(Cc1ccccc1)C(C(=O)NC1CCCC1)c1ccncc1)c1ccco1 (configuration not stated),2,nt,nt,nt,0.68,-0.1,-2.0,nt,-1
C[C@]12CC[C@@H]3c4ccc(O)cc4C(=O)C[C@H]3[C@@H]1CC[C@@H]2O,6,-8,-24,-0.6,nt,0.2,1.8,i,3
COC(=O)C1(Cc2ccc3c(c2)CCC3)Cc2ccc3c(c2C1=O)CCC3 (configuration not stated),nt,10,2,5.8,nt,nt,-3.1,i,-4
CN(C)C(=N)c1n[nH]nc1SCc1ccccc1,nt,2,-4,-3.3,0.69,-0.5,-7.6,i,-4
COc1cc(NC(=O)CSc2ccc(-c3cccnc3)nn2)cc(OC)c1,2,25,21,2.8,0.69,4.8,2.9,i,-6
O=S(=O)(Nc1ccc(N2CCCCC2)cc1)c1ccc(F)c(F)c1,99*,-55,-81,-30,0.64,2.5,-1.3,i,-2
COCCOC(=O)C1=C(C)NC(=O)N(C(C)=O)C1c1ccc(Cl)cc1 (configuration not stated),3,nt,nt,nt,0.69,1.8,-1.8,nt,-9
CCCOc1ccc(C(=O)CCC(=O)OCC(=O)Nc2ccc(OCC)cc2)cc1,nt,9,4,4.2,0.69,0.5,nt,i,nt
CN(C)c1ccc(N=Cc2cccn2C)cc1,nt,9,12,32,nt,nt,3.0,i,1
CCn1nc(C)c(NC(=O)c2cnn3c(C(F)F)cc(-c4ccccc4)nc23)c1C,-9,-14,-19,-3.5,0.66,6.6,-1.5,i,-24
O=C(NCCN1CCC(n2c(=O)[nH]c3ccccc32)CC1)c1ccc(F)cc1,nt,11,10,1.0,nt,nt,-4.8,i,nt
COc1ccc(C2N(c3cccc(Cl)c3)C(=O)C3CCCN32)cc1 (configuration not stated),-22,1,0,1.5,0.73,2.8,3.1,i,-4
CC(C)(C)c1nc(Sc2ccc([N+](=O)[O-])cn2)n[nH]1,-25,3,4,-1.2,0.66,5.8,-4.1,i,7
CCOC(=O)/C(=N\Nc1ccc(Br)cc1)N1CC(C)OC(C)C1 (configuration not stated),100*,nt,nt,nt,nt,nt,1.3,nt,13
COc1ccc(S(=O)(=O)N2CCN(Cc3ccccc3)CC2)c(C)c1,-2,-23,-33,-2.3,0.67,1.5,0.0,i,-7
CC(C)c1ccc(C2CC(=O)N3CN(Cc4ccco4)CSC3=C2C#N)cc1 (configuration not stated),50,nt,nt,nt,0.7,3.6,1.9,nt,-4
CCOC(=O)C1CCN(c2ncnc3c(C)csc23)CC1,-2,-25*,-16*,2.8*,0.65,2.5,-0.4,i,5
COc1ccc(N(C(=O)COc2ccc(F)cc2)S(=O)(=O)c2ccc(C)cc2)cc1,3,nt,nt,nt,0.71,1.9,1.7,nt,-1
CC1(c2ccccc2)NC(=O)N(CC(=O)N2CC(=O)Nc3ccccc32)C1=O (configuration not stated),-7,4,5,-1.3,0.71,1.2,0.3,i,-6
Cc1cc(Cl)ccc1OC(C)C(=O)Nc1ccc([N+](=O)[O-])cn1 (configuration not stated),-12,nt,nt,nt,nt,nt,-8.3,nt,1
CC(C)Cn1c(CN2CCN(C(=O)c3ccco3)CC2)nc2c1c(=O)n(C)c(=O)n2C,0,6,4,-3.6,0.73,2.3,1.9,i,2
Cc1ccc(C(=O)Nc2c(-c3cccs3)c(=O)c3ccccc3n2C)cc1,-6,nt,nt,nt,0.68,6.2,2.1,nt,-8

# Quoted at random: three records from the list, in no set order.
SMILES,ALR inh,rRNA inh HTS,rRNA inh HTS OD600,rRNA inh HTS RFP,Ecoli growth,UCH37 inh,HNF4A DNA FP,FGF22 binding,Beta2AR agonist
O=C(NCCN1CCC(n2c(=O)[nH]c3ccccc32)CC1)c1ccc(F)cc1,nt,11,10,1.0,nt,nt,-4.8,i,nt
CC(C)(C)c1nc(Sc2ccc([N+](=O)[O-])cn2)n[nH]1,-25,3,4,-1.2,0.66,5.8,-4.1,i,7
Cc1ccc(C(=O)Nc2c(-c3cccs3)c(=O)c3ccccc3n2C)cc1,-6,nt,nt,nt,0.68,6.2,2.1,nt,-8

# More records
SMILES,ALR inh,rRNA inh HTS,rRNA inh HTS OD600,rRNA inh HTS RFP,Ecoli growth,UCH37 inh,HNF4A DNA FP,FGF22 binding,Beta2AR agonist
CN(C(=O)c1ccc(OC2CCN(CCc3ccccc3)CC2)cc1)C1CCOCC1,-3,13,20,-0.9,0.65,7.9,-0.9,i,7
O=C(c1nc2ccc(Cl)cn2c1CN1CCCC(CO)C1)N1CCc2ccccc2C1 (configuration not stated),-6,-2,5,-1.1,0.71,-2.4,-2.2,i,-15
CCOc1cc(N2CCOCC2)c(OCC)cc1NC(=O)c1nn(CC)c(=O)c2ccccc12,-76,2,9,-2.5,0.74,0.9,-1.4,i,17
COc1cccc(OC)c1C(=O)OCC(=O)Nc1cccnc1Cl,-4,-12,-5,-9.7,0.71,0.6,1.8,nt,9
CCCCOc1ccc(-c2nc(SCC(N)=O)n[nH]2)cc1,1,nt,nt,nt,0.66,0.6,-3.9,nt,-9
CCc1ccc(NC(=O)CSc2nc3cc(C(=O)OC)ccc3c(=O)n2CC2CCCO2)cc1 (configuration not stated),-7,nt,nt,nt,0.78,-6.3,-2.9,nt,1
